PINK1 expr mod = modulators of PINK1 expression. PINK1 immunofluorescence, high-content cytometry, 24 h. Potency, µM (series often up to 76.6 µM), without a hit: at the highest dose activation (PINK1 increase), most hits filed as activators. 410,000 compounds, 0.2% hits; active = well fitted activation curve with a large enough effect; inconclusive = small, poorly fitted or top-dose-only effect; inactive = flat fitted curve, though single readings scatter; cell line not stated here;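 also: potency is read from the fitted curve at half-maximal effect; % of control where 0% means no effect; nearly all actives have a fitted effect of over 65% in size; a mitochondrial uncoupler was the plate control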
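A stable cell line was treated with compounds at 5 concentrations for 24 hours, with CCCP as control. PINK1 levels and mitochondrial localization were measured by immunofluorescence with mitochondrial, cell and nuclear markers after fixation, read by laser-scanning cytometry.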
Menin MLL FP FL = displaces fluorescein MLL peptide from human menin; Fluorescence polarization, fluorescein-MLL peptide displacement from menin; FP activity change, % at 61.4 µM; 290,000 tested, under 10 active; AID 1766; inconclusive = falling polarisation curve, or a change in total fluorescence; inactive = total fluorescence flat and polarisation flat or rising; no compound was filed as active; the % refers to the polarisation; negative = inhibition;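 also: % of control where 0% means no effect; inhibitors lower the polarisation; unlabelled MLL peptide was the positive control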
gsp agonist = gsp mutant agonism | gsp mutant cells, cAMP HTRF, 30 min; control for the full effect not named in the record | Potency, µM (doses to about 76.9 µM), for inactives: at the top dose activation (cAMP increase), actives largely listed as activators | 340,000 compounds, 0.13% hits | AID 624287; active = well fitted activation curve with a large enough effect; inconclusive = small, poorly fitted or top-dose-only effect, or another doubt; inactive = no such curve, though single readings can be large or run the other way; cell line not stated here;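 also: phosphodiesterase inhibitor Ro 20-1724 added with compounds to block cAMP breakdown; potency is read from the fitted curve at half-maximal effect; nearly all actives have a fitted effect of over 60% in size; about a fifth of the inactives were tested at one dose only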
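Cells in DMEM/10% FBS with G418 were pretreated with compounds in DMSO plus […] (300 uM stock) for 30 min at 37C. cAMP was measured by HTRF (cAMP-d2 plus anti-cAMP antibody-K) after 30 min at room temperature.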
ClpP mod = qHTS Assay for Activators of ClpP; ATP-dependent Clp protease proteolytic subunit (Bacillus subtilis (strain 168)), P80244; purified B. subtilis ClpP, FRET peptide cleavage, 20 min; Potency, µM (doses to about 57.5 µM), inactives show at the highest dose activity change, negative = active; 340,000 compounds, 1.9% hits; AID 651965, 2013; active = well fitted falling curve with a large enough effect; inconclusive = small, poorly fitted or top-dose-only effect; inactive = no such curve, though single readings can be large or run the other way; also: potency is read from the fitted curve at half-maximal effect; the source files actives as falling curves though it sought activators and does not explain the sign; nearly all actives have a fitted effect of over 65% in size; many hits overshoot -100%
Target sequence (P80244 whole entry, looked up): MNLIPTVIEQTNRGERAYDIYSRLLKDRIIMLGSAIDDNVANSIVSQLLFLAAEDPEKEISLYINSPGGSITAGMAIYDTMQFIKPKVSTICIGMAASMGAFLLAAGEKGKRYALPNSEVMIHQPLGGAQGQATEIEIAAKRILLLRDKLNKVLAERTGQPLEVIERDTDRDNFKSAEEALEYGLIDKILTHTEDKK
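ClpP 10 microg/mL final, pH 8 Tris/KCl buffer with BSA, glycerol, Tween-20; compound pinned in; FRET-FV substrate; RT 20 min; Ex320/Em430; ΔFRET vs ADEP 5.8 microM, DMSO, no enzyme.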
D2 agonist = human D2 receptor agonism in beta-arrestin assay; DiscoveRx PathHunter D2 beta-arrestin, luminescence, 90 min; 100% = 57 uM dopamine signal; activation, % (test concentration not listed); 360,000 compounds, 0.084% hits; AID 624465; in the data active = activation above about 40%; inconclusive = about 15% to 40%; inactive = below about 15%; also: compound concentration not given in the record; the text of the record calls up to 30% inactive
Target sequence (P14416 whole entry, looked up): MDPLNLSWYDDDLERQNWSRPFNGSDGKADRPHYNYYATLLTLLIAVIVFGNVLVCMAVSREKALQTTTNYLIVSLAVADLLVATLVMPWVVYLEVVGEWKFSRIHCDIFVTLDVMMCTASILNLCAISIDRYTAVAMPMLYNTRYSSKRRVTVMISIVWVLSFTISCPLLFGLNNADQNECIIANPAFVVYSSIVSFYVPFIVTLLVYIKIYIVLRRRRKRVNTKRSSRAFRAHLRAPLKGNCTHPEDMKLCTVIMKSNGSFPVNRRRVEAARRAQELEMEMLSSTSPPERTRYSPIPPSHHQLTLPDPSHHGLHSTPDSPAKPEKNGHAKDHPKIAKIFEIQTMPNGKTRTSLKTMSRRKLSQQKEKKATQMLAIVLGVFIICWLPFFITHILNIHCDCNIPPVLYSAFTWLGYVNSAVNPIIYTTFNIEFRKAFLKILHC
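DiscoveRx PathHunter D2 beta-arrestin cells (2,100/well) attached overnight, then compound-stimulated 90 min at 37 C in HBSS/10 mM HEPES/0.1% Tween-20 buffer; beta-galactosidase complementation read by luminescence after 1 h at ambient temperature. Dopamine 57 uM final (EC100) as control.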
gsp antag = gsp mutant antagonism; Potency, µM (doses to about 76.9 µM), without a hit: top-dose activity change, negative = inhibition, hits mostly inhibitors; gsp-mutant cells, cAMP HTRF, 30 min; control for the full effect not named in the record; 340,000 compounds, 0.4% hits; AID 624288; active = falling curve of any shape with a large fitted effect; inconclusive = falling curve, mostly with a smaller effect; inactive = flat or rising curve; cell line not stated here;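 also: intracellular cAMP measured with PDE inhibitor Ro 20-1724 present during compound exposure; potency is read from the fitted curve at half-maximal effect; % is scaled to controls: 0 for no effect and ±100 for the full control effect; nearly all actives have a fitted effect of over 65% in size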
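Cells in G418 medium, seeded 16-24 h, 37C; buffer exchange to DPBS + 1 mM CaCl2, 0.5 mM MgCl2, 0.05% BSA; cpds in DMSO + […] (300 uM stock), 30 min 37C; HTRF cAMP detection.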
Sfp PPTase inh = Sfp phosphopantetheinyl transferase inhibition; Q9F4F7; Biochemical Sfp PPTase activity, qHTS; Potency, µM, without a hit: max response, negative = inhibition, actives largely listed as inhibitors; 310,000 compounds, 3.5% hits; AID 1490; active = well fitted inhibition curve with a large enough effect; inconclusive = small, poorly fitted or top-dose-only effect, or another doubt; inactive = no such curve, though single readings can be large or run the other way;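 also: the enzyme is Sfp with the accession as filed and its product quenches rhodamine fluorescence; potency is read from the fitted curve at half-maximal effect; 0% = enzyme reaction without inhibitor and -100% = no enzyme wells; top concentration of the series not given in the record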
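After 15 min at room temperature with compound, 15 nM Sfp received 5 uM rhodamine-CoA plus 12.5 uM BHQ-2-ybbR (50 mM Hepes pH 7.6, 10 mM MgCl2). Rate came from the fluorescence difference over 30 min, ex 525/em 598 nm.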
Active calls of the source: *; u = inconclusive; x = no result given; & = joins results of further samples; [ ] = remark or other dose.

SMILES | PINK1 expr mod | Menin MLL FP FL | gsp agonist | ClpP mod | D2 agonist | gsp antag | Sfp PPTase inh
CN1C(=O)NC(NC(=O)c2cccs2)(C(F)(F)F)C1=O (centres undefined) | -2.6% | 0.0 | 6% | -0.9% | -1.6 | 11% | 12%
O=C1OCCC1Sc1nc2ccccc2n1Cc1ccccc1 (centres undefined) | 0.1% | 3.4 | 0% | -0.6% | -1.2 | -5% | 10%
Cn1c(=Nc2ccccc2)sc2ccccc21 | 3.0%[38.3 µM] | 1.1 | -17% | -2.3% | -0.5 | -17% | -5%
O=C(NNC(=S)Nc1ccccc1)c1ccc(O)cc1 | -0.1% | 3.4 | -3% | -0.4% | -9.0 | -15% | 14%
Cn1c(CNC(=O)c2ccc(Cl)c(Cl)c2)nnc1SCC(=O)Nc1sc2c(c1C#N)CCCC2 | 18%[38.3 µM] | 0.1 | -20% | -13% | -2.2 | -2% | 6%
C=CCC1(Cl)C(=O)C(Cl)=C(N2CCOCC2)C1(OC)OC (centres undefined) | -1.4% | -1.6 | 1%[15.4 µM] | -1.3% | -4.1 | -2% | -20%
O=C(Nc1ccc2c(c1)OCCO2)C1CCN(S(=O)(=O)Cc2ccccc2)CC1 | 0.6% | -0.8 | -18% | 1.3% | -2.6 | -3% | 15%
OCCN1CCN(c2nc(-c3ccccc3O)nc3ccccc23)CC1 | -1.1% | -12 | -37%[inhibitor] | x | -2.4 | -12% | 0%
N#Cc1ccc(CN2C=NS(=O)(=O)c3ccccc32)cc1 | -0.5% | -2.1 | u | x | 0.7 | 14% | 6%
FCCCOc1ccc(-c2nccc(-c3ccc(F)cc3)n2)cc1 | 9.2% | -0.2 | 1% | -14% | -11 | -3% | -10%
CC1Cc2ccccc2N1Cc1nc2cc(C(F)(F)F)ccc2c(=O)[nH]1 (centres undefined) | -0.2% | 5.5 | 0% | -4.3% | 2.7 | 0%[15.4 µM] | 15%
CCCn1c(=O)c2c(C(=O)OCC)cc(-c3ccco3)nc2n(CCC)c1=O | 6.6%[38.3 µM] | 5.5 | -1% | 13µM* | 2.2 | -14% | 8%
COc1ccc(OCCNC2CCCC2)cc1 | 2.9% | -1.0 | -45%[inhibitor] | 0.4% | -2.4 | 4% | 2%
CCC1CCCCN1S(=O)(=O)c1ccc(NC(=O)CSc2ncccc2C(=O)O)cc1 (centres undefined) | x | 1.6 | -7% | -7.2% | 0.5 | 0% | 18%
O=C(NCc1ccco1)C(=O)N1CCCC1 | 1.4% | -2.5 | u | 1.2% | -0.9 | 5% | 5%
CCOc1ccc(NS(=O)(=O)c2ccc(NS(=O)(=O)c3ccc(SC)cc3)cc2)cc1 | -2.3%[38.3 µM] | -7.0 | -1% | -3.8% | 4.0 | -10% | 1%
O=S(Cc1cc(Oc2ccccc2)nc(-c2ccccc2)n1)c1ccccc1 (centres undefined) | -1.6% | 6.0 | -4% | -1.1% | -2.8 | -19% | -5%
Cn1c(NC(=O)/C=C/c2ccco2)cc(=O)n(C)c1=O | 0.7% | u | 11% | 1.1% | -1.5 | -16% | 56µM*
CC1=CC(=O)C=C(C)C1=NOc1ccc([N+](=O)[O-])cc1 | 2.4% | -0.2 | 6% | x | 4.3 | 4% | 9%
COc1ccc(-c2nc(CN3CCC(C(=O)NC4CCCc5ccccc54)CC3)c(C)o2)cc1OC (centres undefined) | 4.3% | x | 1% | -3.0% | 0.1 | 10% | x
COc1ccccc1/C=N/NC(=O)C(=O)N1CCN(c2ccccc2OC)CC1 | 0.2% | 2.9 | 6% | 4.9% | -1.3 | 13% | 5%
CCOC(=O)C1CCN(C(=O)c2cn(C)c(=O)c3cc(OC)c(OC)cc23)CC1 | -2.8% | 3.4 | 13% | -26% | -1.6 | -16% | 18%
O=C(CSc1ncccn1)N/N=C/c1cccc([N+](=O)[O-])c1 | 0.9% | -0.7 | 0%[15.4 µM] | -0.2% | -1.6 | 14% | 14%
O=C(NCCC1CCCCN1S(=O)(=O)c1ccc(Cl)cc1)C(=O)NCc1cccnc1 (centres undefined) | 2.0% | x | -4%[15.4 µM] | x | -1.5 | -25% | x
C=CC[C@]12CCc3ccccc3C1N(c1ccc(C(=O)OCC)cc1)C2=O (some centres undefined) | 2.6% | x | x | -3.7% | -2.5 | 0% | x
SMILES | PINK1 expr mod | Menin MLL FP FL | gsp agonist | ClpP mod | D2 agonist | gsp antag | Sfp PPTase inh
COc1ccc(C)cc1NC(=O)Nn1cnnc1 | 2.1% | 2.3 | 5% | -0.8% | -0.2 | 11% | 17%
O=C(NCCc1ccccc1)c1ccc(CS(=O)Cc2cccc(Cl)c2)o1 (centres undefined) | -0.8% | 0.5 | -19% | -0.1% | -2.6 | -7% | 1%
COc1ccccc1NC(=O)COc1ccc(C(=O)OCC(=O)NC(C)(C)C)cc1OC | 2.3% | -0.1 | -3%[15.4 µM] | x | -1.2 | -37% | 22%
CC(C)(C)OC(=O)C[C@H]1C/C=C\C[C@H](CC(=O)NCCO)C(=O)N2CCC[C@@H]2COC1=O | -0.8% | x | -40%[inhibitor] | 1.5% | -3.7 | 8% | x
COc1ccc(N=Cc2c(O)c3ccccc3oc2=O)cc1 | 3.9% | 11 | 7% | 0.5% | -0.4 | u | 0%
CN(C)c1nc(SCC(=O)Nc2ccccc2)nc(N2CCOCC2)n1 | -0.1% | 4.2 | -2%[15.4 µM] | x | -18 | 6% | -8%
O=C(NCCc1ccccc1)C1CC1 | -2.6% | 0.4 | 11% | -1.8% | -2.2 | u | 2%
Cc1cnc(C(=O)OCC(=O)c2ccc(-c3ccccc3)cc2)cn1 | 0.5% | x | 26% | -16% | -3.2 | 2% | 6%
Cc1oc(C(C)(C)C)cc1C(=O)NC1CCN(Cc2ccccc2)CC1 | 1.6% | -0.1 | 1%[15.4 µM] | 1.4% | -4.6 | 18% | -5%
O=c1[nH]c(/C=C/c2ccc(OC(F)F)cc2)nc2c1cnn2-c1ccccc1 | 6.0% | 1.7 | 3%[15.4 µM] | x | -2.6 | 9% | 11%
O=C(COC(=O)c1ccc[nH]c1=O)NC1CCCc2ccccc21 (centres undefined) | 0.9% | 1.3 | -4%[15.4 µM] | x | -2.8 | 5% | 4%
CCOc1ccc(S(=O)(=O)N2CCOCC2)cc1NC(=O)CN1C(=O)NC2(CCCCC2)C1=O | 1.7% | x | -49%[inhibitor] | -3.6% | 3.7 | 11% | x
Cc1cc[n+](CC(=O)Nc2cc(C(F)(F)F)ccc2Cl)cc1 | -4.5%[38.3 µM] | -1.0 | -20% | -0.3% | 1.6 | 20% | 13%
CCn1ncc(Br)c1C(=O)Nc1nccs1 | -0.6%[38.3 µM] | 1.7 | 24% | -1.4% | -0.1 | 11% | 12%
O=C(CSc1nc2ccc(NC(=O)CSc3nnnn3-c3ccccc3)cc2s1)Nc1ccccc1 | 2.9% | 1.6 | 0% | -1.6% | 0.5 | -15% | -3%
Cc1ccc(NC(=O)NCC(c2ccccc2)N(C)C)cc1 (centres undefined) | -0.2% | -6.2 | 2%[15.4 µM] | x | -2.4 | 10% | 5%
CN(C)/C=C/C(=O)/C=C/c1ccc(Cl)cc1 | 4.0% | 6.6 | 9%[15.4 µM] | x | 2.8 | 5% | 16%
Cc1ccc(CNc2ccc(S(=O)(=O)N3CCOCC3)cc2[N+](=O)[O-])cc1 | -1.8% | 3.2 | 7% | u | 0.7 | -4% | -1%
Cc1c(C(=O)Nc2nnc(SCc3ccccc3Cl)s2)cccc1[N+](=O)[O-] | 6.7% | -2.1 | -16% | 1.5% | -1.8 | 12% | 7%
Cc1nc2c(Br)c3nc(C(F)(F)F)[nH]c3c(Br)c2[nH]1 | 4.0% | 12 | -14% | 0.3% | -0.9 | -2% | 5%
CCOC(=O)c1cnn(Cc2ccccc2)c1N | x | -1.9 | -54%[inhibitor] | 0.8% | 0.3 | 7% | 2%
Oc1ccccc1CNc1ccc(OC(F)(F)F)cc1 | 0.0% | -1.2 | 13%[15.4 µM] | x | 8.7 | -8% | 19%
O=C(Cc1cccc2ccccc12)N1CC[C@@]2(O)CCCC[C@H]2C1 | -0.5% | -8.1 | 5%[15.4 µM] | x | -4.2 | -5% | 4%
OC(c1ccccc1)c1nccn1Cc1ccccc1 (centres undefined) | 1.1% | 1.7 | 7% | 0.6% | -1.9 | 10% | 13%
CC(=O)Nc1cccc(OCCOc2cccc([N+](=O)[O-])c2)c1 | 2.9% | x | -14% | -11% | -0.1 | 0% | x
SMILES | PINK1 expr mod | Menin MLL FP FL | gsp agonist | ClpP mod | D2 agonist | gsp antag | Sfp PPTase inh
Cc1cccn2c(=O)c(/C=C(\C#N)C(=O)NC3CCS(=O)(=O)C3)c(Oc3ccc(F)cc3)nc12 (centres undefined) | 20% | 2.7 | 16% | x | -0.8 | 2% | -5%
CC1=NNC(=O)C1CC(=O)N/N=C(\C)c1ccco1 (centres undefined) | 2.0% | 0.8 | 12%[15.4 µM] | x | -4.9 | 5% | 16%
O=C(O)c1cccc(Cn2cc(Br)cn2)c1 | 2.5% | 5.8 | -3%[15.4 µM] | -3.3% | 3.9 | 9% | 13%
COc1ccccc1CNc1nc(Nc2ccccc2Cl)c2sccc2n1 | 1.6% | x | x | -21% | -3.1 | x | x
COC(=O)c1cc(S(=O)(=O)NCC2CCN(Cc3ccccc3F)CC2)c[nH]1 | -0.6%&0.3% | x | -9% | -0.3%&-8.6% | -1.4 | 7% | 11%
COc1cc(C(=O)NC(=S)NCc2ccco2)cc(OC)c1OC | u | 0.1 | u | -0.7% | 6.2 | 7% | 45µM*
Cc1nnc(SCC(=O)NC2CCCC(C)C2C)n1N (centres undefined) | -0.3% | x | 4%[15.4 µM] | 1.2% | -3.1 | 7% | x
Nc1ccccc1C(=O)NCCCN1CCOCC1 | 0.6% | 2.5 | 12%[15.4 µM] | -2.9% | -4.1 | 4% | 7%
Fc1ccc(-c2[nH]ncc2CN2CCN(c3ccc(F)cc3)CC2)cc1 | 3.7% | 1.8 | 15%[15.4 µM] | x | -2.7 | 17% | 16%
Cc1ccc(NC2=Nc3ccccc3CS2)cc1 | -1.7% | 3.6 | 4% | 0.8% | -4.3 | 11% | -15%
